GIRK2 act – opens human GIRK2 potassium channels; calls only for hits at 25 µM; hit rate 0.05% among 63,000; AID 1259325; HEK293-GIRK2 thallium flux, Thallos fluorescence;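 active = among the strongest 0.2% of first-round signals and kept after retests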;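 also: first round at about 10 µM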
Target sequence (P48051 whole entry, looked up): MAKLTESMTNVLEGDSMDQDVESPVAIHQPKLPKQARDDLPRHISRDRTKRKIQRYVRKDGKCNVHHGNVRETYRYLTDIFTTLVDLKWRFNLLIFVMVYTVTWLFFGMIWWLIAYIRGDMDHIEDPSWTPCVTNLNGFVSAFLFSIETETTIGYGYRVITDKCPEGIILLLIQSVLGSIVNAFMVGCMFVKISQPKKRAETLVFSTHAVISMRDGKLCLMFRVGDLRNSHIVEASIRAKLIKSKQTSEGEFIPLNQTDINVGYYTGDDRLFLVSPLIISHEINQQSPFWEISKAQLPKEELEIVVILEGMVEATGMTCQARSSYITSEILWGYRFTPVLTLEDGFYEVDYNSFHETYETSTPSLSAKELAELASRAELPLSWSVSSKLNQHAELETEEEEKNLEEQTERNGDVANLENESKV
Calls only; i = inactive. A portion of the library; count on the stated rates, not on these rows.

SMILES	GIRK2 act
CCCOc1ccc(C2NC(=O)NC(C)=C2C(=O)OC2CCCC(C)C2)cc1 (centres undefined)	i
Cc1cc(=O)n2c(CCNC(=O)c3cc(-c4ccco4)on3)csc2n1	i
CCN(CC)S(=O)(=O)c1ccc(-c2nc(C#N)c(N3CCN(c4ccccc4)CC3)o2)cc1	i
O=C(N1CCN(CC(O)c2cccs2)CC1)C1(c2cccs2)CCCC1 (centres undefined)	i
COc1ccc(CNC(=O)Nc2ccc(N3CCCC3=O)c(C)c2)cc1	i
COc1ccc(S(=O)(=O)N2CCN(CCN3C(=O)c4cccc5cccc(c45)C3=O)CC2)cc1	i
Cc1nn(-c2ccccc2)c(C)c1N1CCN(C(=O)NCc2cccs2)CC1	i
O=C(Nc1cc(N2CCCC2)ncn1)c1cc2ccccc2o1	i
COc1ccc(-c2noc(C3CCCN(S(=O)(=O)c4cccs4)C3)n2)cc1OC (centres undefined)	i
O=C(Nc1cccc2nsnc12)c1cnn(-c2ccccc2)n1	i
COC(=O)c1cc2c(=O)n(C)c(=O)n(C)c2[nH]1	i
O=C(Nc1nc(C(=O)NC2CCSC2=O)co1)c1cnccn1 (centres undefined)	i
COc1ccc(CCC(=O)Nc2c3c(nn2CC(=O)NCc2ccco2)CSC3)cc1	i
CCN(CC)C(=O)Cn1cc(C(=O)C(=O)NCCCN2CCOCC2)c2ccccc21	i
CC(=O)Cn1c(=O)c2c(nc3n2CCCN3c2ccc(Br)cc2)n(C)c1=O	i
O=C(NCC1CCN(C(=O)c2cccnc2)CC1)c1cc(-c2ccccc2)on1	i
CCCCC/C=C\C/C=C\C/C=C\C/C=C\CCCC(=O)OCC(O)CO (centres undefined)	i
COc1ccc(Br)c(C(=O)NCCc2nc(C)cc(C(F)(F)F)n2)c1	i
CCC(=O)Nc1ccc(Cn2cnc(C(=O)Nc3cccc(Cl)c3)c2)cc1	i
O=C(NCCNS(=O)(=O)c1ccc2c(c1)CCCC2)c1ccc(NC(=O)C2CC2)cc1	i
COc1cc(-c2noc(-c3nn(-c4ccc(C)c(C)c4)ccc3=O)n2)cc(OC)c1OC	i
O=C(NCCOc1cc(N2CCCCC2)ncn1)c1ccco1	i
COc1ccc(/C=C/C(=O)N2CCC(c3nnc(C4CC4)o3)CC2)cc1OC	i
Cc1cc(C)n(-c2ccc(=O)n(CCNC(=O)COc3ccc(C)c(C)c3)n2)n1	i
COc1ccc(NC(=O)CSc2cc(-c3nc(C)no3)ccn2)c(OC)c1	i

A draw from above in order of formula weight, low to high.
SMILES	GIRK2 act
O=C(Nc1cccc2nsnc12)c1cnn(-c2ccccc2)n1	i
O=C(NCC1CCN(C(=O)c2cccnc2)CC1)c1cc(-c2ccccc2)on1	i
CCN(CC)C(=O)Cn1cc(C(=O)C(=O)NCCCN2CCOCC2)c2ccccc21	i
O=C(NCCNS(=O)(=O)c1ccc2c(c1)CCCC2)c1ccc(NC(=O)C2CC2)cc1	i

Later entries
SMILES	GIRK2 act
CC1=C(C(=O)OC(C)C)C(c2cccc([N+](=O)[O-])c2)N2C(=O)CCSC2=N1 (centres undefined)	i
O=c1c(-c2ccc(Cl)cc2)coc2c3c(ccc12)OCN(C1CCCC1)C3	i
COc1ccc(-c2cc3c(SCC(=O)Nc4cccc(C(C)=O)c4)nccn3n2)cc1	i
CCCCOC(=O)c1ccc(NC(=O)c2ccc(S(=O)(=O)N3CCN(C)CC3)o2)cc1	i
Cc1ccc(-c2noc(-c3cn(CC(=O)Nc4ccc5c(c4)OCO5)c4nc(C)ccc4c3=O)n2)cc1	i
CC(C)C(=O)NCC(Cc1cccc(F)c1)N1CCCCC1=O (centres undefined)	i
COc1ccc(NC(=O)CSc2nc3c(oc4ccccc43)c(=O)n2Cc2ccco2)cc1Cl	i
COc1ccc(-c2nc(C#N)c(N3CCN(C(=O)c4ccccc4OC)CC3)o2)cc1	i
O=C(CCn1c(=O)oc2ccc(Cl)cc21)N1CCc2ccccc21	i
Cc1cc(C)c(NC(=O)CSc2nccnc2N2CCCC(C)C2)c(C)c1 (centres undefined)	i
CC(O)C(O)/C=C/C=C/C(=O)O[C@@H]1C=C2COC(=O)[C@]2(O)[C@@]2(C)CCCC(C)(C)C12 (some centres undefined)	i
O=C(NC1CCCCC1)N(Cc1ccsc1)Cc1ccco1	i
O=C1CCCN1c1ccc(Cn2cc(-c3nc(-c4ccccc4)no3)ccc2=O)cc1	i
CCOCCn1c(=O)c2c(nc3n(-c4ccc(C)c(C)c4)c(-c4ccccc4)cn23)n(C)c1=O	i
CS(=O)(=O)N1CCC(C(=O)NCc2nn(C3CCCC3)c(=O)c3ccccc23)CC1	i
O=C1/C(=C/c2ccncc2)Oc2c1ccc1c2CN(Cc2ccccc2Cl)CO1	i
CS(=O)(=O)N1N=C(c2ccccc2)CC1c1cn(-c2ccccc2)nc1-c1cccs1 (centres undefined)	i
O=C(CCc1c[nH]c2ccccc12)OCC(=O)c1ccc([N+](=O)[O-])cc1	i
COc1cccc(COc2cn(C)c(C(=O)NCc3ccco3)cc2=O)c1	i
CCN(CC)CC(=O)Nc1c(C)cccc1C	i
O=C(CN1CC(c2nc(-c3cccs3)no2)C1)NCC1CCCO1 (centres undefined)	i
O=c1nc2n(c3ccccc13)CC/C2=C\c1cccs1	i
O=C1CCSCC(C(=O)NCc2nc(-c3ccccc3)no2)N1 (centres undefined)	i
COc1cn(C)c(C(=O)Nc2ccccc2C(N)=O)cc1=O	i
COc1ccc(C2CCN(C(=O)CCS(=O)(=O)c3ccccc3)C2)cc1 (centres undefined)	i

Molecules from the list above that have a nitro group on carbon, in the order listed:
SMILES	GIRK2 act
CC1=C(C(=O)OC(C)C)C(c2cccc([N+](=O)[O-])c2)N2C(=O)CCSC2=N1 (centres undefined)	i
O=C(CCc1c[nH]c2ccccc12)OCC(=O)c1ccc([N+](=O)[O-])cc1	i

Other results follow:
SMILES	GIRK2 act
CCN(CC)C(=O)Cn1cc(C(=O)C(=O)N2CCN(Cc3ccccc3)CC2)c2ccccc21	i
CCS(=O)(=O)NCC1CCC(C(=O)NCCc2ccccc2OC)CC1 (centres undefined)	i
Cc1ccc(-n2ccnc(SCC(=O)NCc3ccccc3Cl)c2=O)cc1	i
CCOC(=O)N1CCC(NC(=O)C2COCC(=O)N2Cc2ccccc2)CC1 (centres undefined)	i
NC(=O)C1CCN(c2ncnc3c2oc2ccccc23)CC1	i
CCc1cccc(C)c1NC(=O)CN1C(=O)C2(SCC(=O)N2c2ccc(F)cc2)c2ccccc21 (centres undefined)	i
CCOc1ccc(CCNc2nccn(-c3ccc(OC)c(Cl)c3)c2=O)cc1OCC	i
CCOc1ccc(-c2ccc(N3CCN(C(=O)c4cc5ccccc5o4)CC3)nn2)cc1	i
COCCN1CCC(NC(=O)COc2ccc3ccccc3c2)CC1	i
O=C(NCc1ccccc1)C1CCCN(c2nc3c(-c4ccccc4)csc3c(=O)[nH]2)C1 (centres undefined)	i
CC(=O)Nc1cc(C)nn1-c1nc2ccc(F)cc2s1	i
O=C(Cn1c(=O)nc(-c2ccccc2F)c2cc(Cl)ccc21)Nc1ccc2c(c1)OCO2	i
Cc1cc(C)n(-c2ccc(=O)n(CC(=O)Nc3ccc(-c4cn5ccsc5n4)cc3)n2)n1	i
CCOC(=O)CN1CCN(c2nc3c(c(=O)[nH]c(=O)n3C)n2Cc2cccc(C)c2)CC1	i
COCCn1c(=O)c2c(nc3n(-c4ccc(C)cc4)c(C)c(C)n23)n(C)c1=O	i
Cc1csc(C(=O)N2CCN(CC(F)(F)F)CC2)c1	i
COc1cc(NS(=O)(=O)c2ccc(NC(=O)c3ccc(S(=O)(=O)N(CCC#N)CCC#N)cc3)cc2)nc(OC)n1	i
COc1ccccc1NCCN1N=C(C)Cn2c1nc1c2c(=O)n(C)c(=O)n1C	i
COc1ccc(OC)c(C(O)CN2CCN(C3CCCCC3)CC2)c1 (centres undefined)	i
COc1cc(S(=O)(=O)NCCCn2ccnc2)ccc1Cl	i
O=C(Nc1nc2ccccc2s1)c1ccc(OCc2nc(C3CC3)cs2)cc1	i
Cc1nc(NC(=O)COc2ccc3c(c2)C(=O)CC3)sc1C(=O)N(C)C	i
CC(=O)OC(C)(C)C1Oc2cc3oc(=O)ccc3cc2C1OC(=O)CC(C)C (centres undefined)	i
Cc1cc(OCC(O)CNCCO)ccc1Cl (centres undefined)	i
CCOC(=O)Nc1cc(-c2cccs2)nn1-c1nc(-c2ccccc2)cc(=O)[nH]1	i

Structural class, the compounds so far with bromine (two)
SMILES	GIRK2 act
CC(=O)Cn1c(=O)c2c(nc3n2CCCN3c2ccc(Br)cc2)n(C)c1=O	i
COc1ccc(Br)c(C(=O)NCCc2nc(C)cc(C(F)(F)F)n2)c1	i

More entries:
SMILES	GIRK2 act
Cc1ccc(Cl)cc1NC(=O)CN1CCCCC1	i
C=CCn1c(=O)c2c(nc3n(-c4ccc(OC)cc4)c(-c4ccccc4)cn23)n(C)c1=O	i
C=C(C)COc1ccc(-c2nc(N)nc(C)c2-c2ccc(OC)cc2)c(O)c1	i
CCOC(=O)c1cccc(NC(=O)Cn2c(C)cc(C)c(-c3nc(-c4ccccc4)no3)c2=O)c1	i
Cc1cc(NC(=O)c2ccncc2)c2cc(Br)ccc2n1	i
CCCCN1CC(c2nc3ccccc3n2CCCOc2ccccc2OC)CC1=O (centres undefined)	i
COc1ccc(-c2cc(N3CCC(C(=O)Nc4cccc(-c5csc(C)n5)c4)CC3)ncn2)cc1	i
COc1ccc(Cl)cc1NC(=O)N(C)c1ccc(Oc2ccc(C)nn2)cc1	i
COCCCN1COc2ccc3c(c2C1)O/C(=C\c1ccccc1)C3=O	i
O=C(Cn1nc2c(N3CCOCC3)nccn2c1=O)Nc1ccc(Cl)cc1	i
Cc1noc(C)c1S(=O)(=O)NCC#CCOc1cccc(C(F)(F)F)c1	i
COCCNC(=O)C(=O)NCCC(O)C1CC1 (centres undefined)	i
COC(=O)N1CCc2ccc(OC)cc2C1C(=O)N1CCc2ccccc21 (centres undefined)	i
Nc1c(C(=O)NCCCc2ccccc2)c2nc3ccccc3nc2n1/N=C\c1ccco1	i
COc1ccc2c(c1)c(CC(=O)Nc1ncc(C)s1)c(C)n2C(=O)c1ccc(Cl)cc1	i
Cc1ccc(S(=O)(=O)c2c(C)nn(C(C)(C)C)c2OC(=O)COc2ccc(Cl)cc2)cc1	i
COc1ccc(C(=O)Cn2c(NCCN(C)C)nc3c2c(=O)[nH]c(=O)n3C)cc1	i
CCOC(=O)c1c(S(=O)(=O)NCc2ccc(C(F)(F)F)cc2)n[nH]c1CC	i
O=C(/C=C/c1ccccc1)Nc1ccc(-n2nnc(C(=O)NC3CC3)n2)cc1	i
O=C(NCCNc1cc(-n2cccc2)ncn1)c1cccc2ccccc12	i
O=C(c1ccc(=O)[nH]n1)N1CCC(COCc2ccccc2)CC1	i
O=C(C1CC1)N1CCCC(c2nnc(Cc3ccccc3)s2)C1 (centres undefined)	i
O=C(Nc1nc2c(s1)COc1ccccc1-2)Nc1c(F)cccc1F	i
CCc1ccc(C(=O)NCC2CCN(C(C)C)CC2)cc1	i
COc1ccc(Cl)cc1C(=O)N1CCc2nc(NC(=O)C3CCCO3)sc2C1 (centres undefined)	i
SMILES	GIRK2 act
CCOC(=O)c1ccccc1NC(=O)CSC1=Nc2cc(S(=O)(=O)CC)ccc2OC1	i
CCOc1ccc2nc(NC(=O)c3nnn(-c4ccccc4)c3-c3ccccn3)sc2c1	i
CCOc1ccc(N2CCCn3c2nc2c3c(=O)n(CCc3ccccc3)c(=O)n2C)cc1	i
O=C(CSc1ccc(F)cc1)NCC1(CO)CC1	i
COCCN1CCC(NC(=O)CCc2c(C)noc2C)CC1	i
CCCC/C=C/C=C\C=C/CCCCCCCC(=O)OCC	i
COc1cccc(Cn2nc3c(-c4nc(-c5ccccc5)no4)cccn3c2=O)c1	i
O=C(Cn1cnc2c([nH]c3ccccc32)c1=O)N1CCc2ccccc2C1	i
CN(c1cccc(F)c1)S(=O)(=O)c1c(-c2ccc(F)cc2)csc1C(=O)NCc1cccnc1	i
COc1ccc(NC(=O)CSc2ncnc3c2[nH]c2ccc(Br)cc23)c(OC)c1	i
O=C(NCC1CCC(c2nc3ccccc3[nH]2)CC1)C1(c2ccccc2)CCOCC1 (centres undefined)	i
COc1ccc(C2CC(c3cccs3)=NN2S(=O)(=O)c2ccccc2)cc1 (centres undefined)	i
Cc1cc(F)ccc1S(=O)(=O)NCC(c1ccc2c(c1)OCO2)N1CCN(c2ccccc2)CC1 (centres undefined)	i
CCSc1nnc(NC(=O)CN2CCc3nc(NC(C)=O)sc3C2)s1	i
COc1ccc2c(C)cc(SCC(N)=O)nc2c1	i
O=C(Nc1nc(C(=O)N2CCN(c3ccccc3F)CC2)co1)c1ccccc1	i
CCc1c(C(=O)c2cc(C)cc(C)c2)[nH]c(=O)[nH]c1=O	i
CC(C)Cn1c(=O)n(C)c(=O)c2[nH]cnc21	i
COc1cccc(-n2nnc(C(=O)Nc3ccc4oc(=O)ccc4c3)c2C)c1	i
Cc1ccc(S(=O)(=O)c2nc(-c3cccc(C)c3)oc2N2CCOCC2)cc1	i
COc1ccc(S(=O)(=O)N2CCCc3cc(NC(=O)Nc4ccc(C)cc4)ccc32)cc1	i
Cc1ccc(S(=O)(=O)N(C)CCCC(=O)O)c(C)c1N(C)S(=O)(=O)c1ccccc1	i
COc1ccc(-c2noc(Cn3nc(-c4ccccc4OC)ccc3=O)n2)c(OC)c1	i
Cn1c2ccccc2c(=O)c2c(=O)n(Cc3ccco3)c(-c3ccc([N+](=O)[O-])cc3)nc21	i
CCCCOc1ccc(C(=O)Nc2ccc3c(c2)CCC(=O)N3CCC)cc1	i

Three of these compounds in a different format:
canonical_smiles,GIRK2 act
CN(c1cccc(F)c1)S(=O)(=O)c1c(-c2ccc(F)cc2)csc1C(=O)NCc1cccnc1,i
COc1ccc(NC(=O)CSc2ncnc3c2[nH]c2ccc(Br)cc23)c(OC)c1,i
O=C(NCC1CCC(c2nc3ccccc3[nH]2)CC1)C1(c2ccccc2)CCOCC1 (centres undefined),i

Screens deposited in PubChem BioAssay by Vanderbilt University.
